# Compound activity from PubChem BioAssay.
# UUG fidelity – modulators of yeast start codon fidelity, primary screen, whole organism, S. cerevisiae, single point, plate reader | S. cerevisiae UUG-firefly luciferase reporter, luminescence/redox ratio | activity score, % at 18.7 µM | 350,000 compounds, 0.13% hits | AID 602363, 2012;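 active = replicate mean at a twofold rise or more, about +100% in these data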;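 also: firefly luciferase made from a UUG start codon reports start codon fidelity; reporter light over untreated wells divided by growth signal over untreated wells; some hits fall short of that in this replicate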
# MT1-MMP act inh – blockers of MT1-MMP proenzyme processing, primary screen, HT1080 RFP-PRO-GFP cells, GFP/RFP fluorescence. 360,000 compounds, 0.061% hits. AID 651647, 2012. GFP/RFP ratio fluorescence, overnight; percent of plate control window, DMSO zero. GFP/RFP ratio change, % at 20 µM. Matrix metalloproteinase-14 (Homo sapiens), P50281;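 active = GFP/RFP ratio change of at least 30% with cell ATP level not reduced by more than half and red fluorescence within 50% of control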; also: strong numbers were not always called active
#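 Test system: HT1080 RFP-PRO-GFP cells; Benchmarks: DMSO and RFP-L50D-GFP cell wells; Timing: cells overnight before dosing, compound overnight, 37 °C, 5% CO2; Compound: one 20 µM compound dose with 1% DMSO; Read-out: GFP/RFP fluorescence ratio.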
# CSC inhib – cancer stem cell viability inhibitors, primary screen, luminescence | cancer stem cell-like cells viability | inhibition, % at 7.5 µM | 300,000 compounds, 1.1% hits | AID 2717, 2010;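 active = mean at 75% or more and at least half the replicates too; inconclusive = mean and replicates disagree; tested in HMLE shEcad cells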;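 also: 0% = median of negative and 100% = median of positive control wells; the first replicate is given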
# HIV Env fusion – inhibitors of HIV-1 Env-driven cell-cell fusion, primary screen, HeLa-JRFL effector, CEM21 target cells, luciferase; inhibition, % at 12.3 µM; AID 651610, 2012; 360,000 compounds, 1.1% hits;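 active = mean replicate inhibition score of at least 50 and every replicate individually at or above 50; inconclusive = only one of the two criteria met; inactive = mean below 50 and not all replicates reaching 50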;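 also: 0% = plate neutral controls and 100% = maraviroc near 300 nM; one replicate is shown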
# PABP FP inh – PABP poly(A) RNA binding inhibitors, primary screen, biochemical, fluorescence polarization, uHTS. 290,000 compounds, 1% hits. inhibition, % at 35 µM;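 active = 50% or more with normal probe brightness, or confirmed in later tests; inconclusive = above 50% with abnormal brightness, or retests that disagree; inactive = below 50% or failed in later tests; about a fifth of its hits are not listed in these tables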;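 also: calls also rest on retests at 20 µM and on dose response follow-up; controls were probe without protein and protein plus probe with vehicle; some compounds called inactive have numbers as strong as hits; many hits fall short of the cut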
# Target sequence (P11940 whole entry, looked up): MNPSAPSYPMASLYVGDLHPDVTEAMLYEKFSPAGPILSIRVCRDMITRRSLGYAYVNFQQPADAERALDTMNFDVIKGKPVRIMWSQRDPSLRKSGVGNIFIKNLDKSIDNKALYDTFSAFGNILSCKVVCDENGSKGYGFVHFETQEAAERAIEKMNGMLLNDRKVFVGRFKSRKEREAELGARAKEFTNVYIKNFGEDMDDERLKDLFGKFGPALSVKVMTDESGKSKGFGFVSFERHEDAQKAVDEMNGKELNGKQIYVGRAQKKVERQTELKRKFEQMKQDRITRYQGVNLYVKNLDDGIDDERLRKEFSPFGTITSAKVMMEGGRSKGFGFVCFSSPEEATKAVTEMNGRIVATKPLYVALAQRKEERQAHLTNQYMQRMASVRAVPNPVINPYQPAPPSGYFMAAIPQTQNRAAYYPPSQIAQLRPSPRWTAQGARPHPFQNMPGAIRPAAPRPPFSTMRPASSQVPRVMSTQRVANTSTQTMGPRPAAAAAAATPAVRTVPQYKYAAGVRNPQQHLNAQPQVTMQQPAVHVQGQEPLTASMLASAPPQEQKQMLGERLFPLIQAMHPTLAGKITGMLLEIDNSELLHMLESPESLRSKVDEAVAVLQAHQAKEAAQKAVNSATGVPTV
# Rce1 inhib – yeast Rce1p protease inhibitors, primary screen, biochemical, fluorescence, cell-free homogeneous. AID 2563, 2010. 290,000 compounds, 0.27% hits. calls only. yeast membranes, quenched prenylated peptide cleavage fluorescence;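 active = fall in fluorescence gain of 50% or more versus controls, with final raw signal at or below 3038400; inconclusive = same 50% fall but final raw signal above 3038400; inactive = fall in fluorescence gain under 50%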;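 also: plate controls were neutral control wells for no effect and wells lacking membranes for full effect; tested at 10 µM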
# eIF4H inh – human eIF4H binding inhibitors, primary screen, translation initiation inhibitor project, biochemical, uHTS, fluorescence polarization; eIF4H fluorescence polarization binding assay; 290,000 compounds, 0.94% hits; inhibition, % at 35 µM; Eukaryotic translation initiation factor 4H (Homo sapiens), Q15056;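 active = 50% or more with normal probe brightness, or confirmed in later tests; inconclusive = above 50% with abnormal brightness, or retests that disagree; inactive = below 50% or failed in later tests; about a fifth of its hits are not listed in these tables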;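 also: calls also rest on retests at 20 µM and on dose response follow-up; 0% = protein and probe with vehicle and 100% = probe without protein; strong numbers were not always called active; many hits fall short of the cut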
# MT1-MMP act inh RFP – further read-out of MT1-MMP act inh, marked with its call; RFP signal change, %; measured here: RFP expression control read;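 0 = vehicle wells; hits needed this value within 50% of zero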
# Active calls of the source: *; i = inactive; ? = inconclusive; nt = not tested or not shown; & = joins results of further samples; [ ] = another dose, or the depositor's remark. Only part of the results is shown. The share of hits here may be higher or lower than overall.
SMILES,UUG fidelity,MT1-MMP act inh,MT1-MMP act inh RFP,CSC inhib,HIV Env fusion,PABP FP inh,Rce1 inhib,eIF4H inh
CCOC(=O)CCCCCC(=O)Nc1ccc2c(c1)C(=O)N([C@@H](C)CO)C[C@H](C)[C@H](CN(C)C(=O)NC(C)C)OCCCC[C@H](C)O2,3,3,4,nt,5[16.7 µM],nt,nt,nt
Cc1ccsc1/C=N/NC(=O)Cn1cnc2ccccc21,-9,0,-1,3,nt,-7,i,-6
O=C(O)/C=C/C(=O)NC1CCCCCCCCCCC1,-13,0,1,12,33,1,i,-7
Cc1ccc(-n2nnc3c(=O)n(CC(=O)NCc4ccccc4)cnc32)cc1,-27,6,1,11,nt,2,i,-11
CC(=O)N1c2ccc(S(=O)(=O)NC(CC(=O)O)c3ccc(Br)cc3)cc2CC1C (configuration not stated),0,3,4,1,2,0,i,16
Cc1ccc(NC(=S)NNC(=O)c2c(Cl)c(C)nn2C)cc1,-41,3,0,1,0,0,i,3
COc1ccc(CCN(C)Cc2ccc(OC)c(OCc3ccccc3)c2)cc1OC,nt,-3,-1,-2,nt,5,i,-3
COc1cccc(C(=O)Nc2cc(C)on2)c1OC,-21,6,1,-14,-26,-4,i,1
S=c1[nH]nc(-c2ccco2)n1/N=C/c1ccccc1Cl,nt,3,6,-2,-5,-8,i,4
COc1cc2nc(CN(C)Cc3ccc(F)cc3)[nH]c(=O)c2cc1OC,-7,-4,-3,1,0,2,i,-5
Cc1cc(C(=O)COC(=O)C2=COCCO2)c(C)n1-c1ccc2c(c1)OCO2,-9,2,1,-19,-115,-5,i,-2
CC(C)OCCCNc1nc2c(c(=O)n(Cc3ccccc3F)c(=O)n2C)n1C,-24,4,-8,-16,4,-3,nt,7
Cc1ccc2cccc(NC3OC(=O)c4ccccc43)c2n1 (configuration not stated),nt,6,6,18,30,?,i,?
Cc1ccc(NC(=O)CC(C)N2CCCC2)cc1 (configuration not stated),-7,0,4,-9,-29,-5,i,-4
Cc1nn(-c2cccc(C(=O)O)c2)c(C)c1Oc1ccccc1O,-6,0,8,-7,nt,9,i,-5
Cc1ccc(-c2cc(C(=O)NC3=NCCS3)c3ccccc3n2)cc1C,-9,-2,0,11,nt,1,i,-3
O=C1[C@H]2[C@@H](C3CC3)N3C(=O)CN(Cc4ccccn4)C(=O)[C@@]3(Cc3ccccc3)[C@H]2C(=O)N1c1ccccc1,-3,5,6,19,8,12,i,-7
O=C(NCC1CCCCC1)c1cccc(Br)c1,-19,-1,-2,-11,-1,-2,i,2
CCOC(=O)C1C(C(=O)OCC)C(C)(C)C1N(C)C (configuration not stated),-8,-1,5,nt,-6,nt,nt,nt
CCOc1ccc([C@@H]2CC=C(C(=O)O)[C@H](c3cccc(Cl)c3)N2S(=O)(=O)c2ccc(C)cc2)cc1,-13,3,6,3,-14,nt,nt,nt
O=C(O)c1cn(Cc2ccccn2)c(=O)c2ccccc12,nt,4,6,-11,-4,-3,i,3
Cc1cc(N2CCOCC2)ccc1/C=C1/SC(=O)NC1=O,nt,4,-2,12,-5,50,i,-1
Cc1ccc(NC(=O)COCC(=O)Nc2ccc(F)cc2)cc1,-10,7,2,-4,0,3,i,-6
CCCC(C)C(=O)Nc1ccc(S(=O)(=O)Nc2nccs2)cc1 (configuration not stated),-3,3,4,-5,3,-5,i,-1
Cc1cccc(NC(=S)N(CCN(C)C)C(C)c2ccco2)c1 (configuration not stated),-34,5,-6,-11,4,4,i,-1
C=CCN1C(=O)C(C)(C)N(C(C)=O)c2ccccc21,nt,-2,2,-12,-4,3,i,-8
Cc1cc(C)c(S(=O)(=O)c2ccc(C(C)(C)C)cc2)c(Cl)n1,-18,0,-4,-6,13,-9,i,-12
O=C(CN1CCCC1)Nc1ccc(F)cc1,nt,3,9,-2,5,10,i,3
Cc1cc(C)cc(NC(=O)CN2C(=O)C3CC=CCC3C2=O)c1 (configuration not stated),3,-3,2,-16,nt,nt,nt,nt
O=C(NCCCN1CCCC1=O)c1ccc([N+](=O)[O-])s1,14,4,0,-7,-7,nt,i,nt
COc1ccc(-c2ccc(CN3C(C(C)C)C(=O)N(Cc4cn(Cc5ccco5)nn4)CCS3(=O)=O)cc2)cn1 (configuration not stated),-4,0,-5,nt,-20,nt,nt,nt
O=C(NC(=O)N1CCN(c2ccc([N+](=O)[O-])cn2)CC1)c1ccccc1F,-19,1,0,1,2,-2,i,-4
CCN(CC)S(=O)(=O)c1ccc(N2CCOCC2)c(NS(=O)(=O)c2ccc(C)c(C)c2)c1,nt,-2,-2,-13,9,-4,i,-8
CN(C)C(=O)CCc1ccc2c3c([nH]c2c1)[C@]1(CCc2ccccc2)[C@@H](C(=O)N2CCCCC2)C[C@H](CC(=O)NCc2cccc(C(F)(F)F)c2)C(=O)N1CC3,-1,-16,-23,nt,30,nt,nt,nt
CCOC(=O)CSc1nc2c(c(=O)[nH]c(=O)n2C)n1Cc1ccccc1,-13,2,2,-20,4,7,i,2
O=C(NN=C1CCCC1)c1ccccc1[N+](=O)[O-],-5,-2,2,-13,-1,14,i,4
Cc1ccc(S(=O)(=O)N2CCCCC2)cc1NC(=O)CNc1ccccc1N1CCCC1=O,3,-1,2,-15,nt,nt,nt,nt
O=C(Cn1c(=O)sc2ccccc21)Nc1nc2c(s1)CCCC2,nt,0,1,25,3,2,i,-1
CCCCN(C(=O)c1cc2ccccc2o1)c1c(N)n(CC(C)C)c(=O)[nH]c1=O,-35,-6,0,-7,33,10,i,-4
OC[C@@H]1CN(Cc2ccc(-c3ccccc3)cc2)C[C@H](n2cnc3c(NC4CCC4)ncnc32)O1,-9,8,-28,nt,2,nt,nt,nt
Cc1ccc(C2=NN(CCC#N)C(=O)CO2)cc1,-3,-2,2,-12,-9,4,i,-3
COc1ccccc1N1CCN(CC(=O)N2CCCC2)CC1,nt,-2,5,-7,-10,5,i,4
COc1ccc(Nc2nc(NCc3ccco3)nc(N3CCOCC3)n2)cc1,11,2,-5,4,31,1,i,4
NS(=O)(=O)c1ccc(NNC(=O)c2ccccc2)cc1,-2,-3,1,-7,-1,-8,i,-4
CCCn1c(N)c(N(CCOC)C(=O)COC(=O)CSc2cc(C)c3ccccc3n2)c(=O)[nH]c1=O,1,-2,0,-8,nt,nt,i,nt
O=C(NCCc1ccccc1F)C1CC(O)CN1C(=O)Nc1ccccc1 (configuration not stated),-13,-1,1,nt,-2,10,i,4
O=C1c2ccccc2C(=O)N1CCCCN(C(=O)c1ccc(Cl)s1)c1ccc(Cl)cc1,1,-10,-12,28,23,0,i,-5
Cc1noc(C)c1NC(=O)N(C)C[C@H]1Oc2c(NC(=O)Nc3ccc4c(c3)OCO4)cccc2C(=O)N([C@H](C)CO)C[C@@H]1C,-2&-4,-1,0,nt,10,nt,nt,nt
CC(O)CNCCOc1ccccc1-c1ccccc1 (configuration not stated),8,5,0,2,9,24,i,3
COc1ccccc1N1CCN(C2CCCN(C(=O)CCc3cnn(C)c3)C2)CC1 (configuration not stated),-15,2,5,-5,7,8,i,-6
COc1ccc2oc(=Nc3ccc(C(=O)O)cc3)c(C(=O)NCc3ccco3)cc2c1,nt,4,1,4,-3,-4,i,-5
CCC(CC)NC(=O)Nc1cccc(C)c1C,nt,1,8,1,-10,-7,nt,-4
Cc1[nH]nc(-c2ccc(OCc3cnn(-c4ccccc4)c3)cc2O)c1Oc1ccc(F)cc1,-8,-3,-7,5,nt,-6,i,7
CC(C)(C)C(=O)O/N=C1\CCS(=O)(=O)c2sccc21,nt,-2,1,-16,-1,-1,i,4
CCOC(=O)C1C(c2cc(OC)c(OC)c(OC)c2)NC(=S)NC1(O)C(F)(F)F (configuration not stated),-22,-3,2,-7,-396,1,i,-2
CCCCn1c(N)c(N(CCC(C)C)C(=O)c2c(CC)noc2C)c(=O)[nH]c1=O,-23,0,7,nt,26,nt,nt,nt
Nc1ccccc1NC1=CC(=O)CC(c2ccco2)C1 (configuration not stated),-2,14,1,nt,nt,91*,i,91*
Cc1cc(C)cc(N(CCC(=O)Nc2nnc(C3CC3)s2)S(=O)(=O)c2ccc(Cl)cc2)c1,nt,-14,-16,23,13,10,i,10
Cc1ccc(OCCC(=O)OCc2csc(CC(=O)Nc3ccccc3C)n2)cc1,-16,-2,4,-1,nt,-3,i,-2
Cc1cc([N+](=O)[O-])ccc1NC(=S)NC1CCCC1,-29,-1,-9,-6,nt,7,i,-2

# New compounds follow
SMILES,UUG fidelity,MT1-MMP act inh,MT1-MMP act inh RFP,CSC inhib,HIV Env fusion,PABP FP inh,Rce1 inhib,eIF4H inh
COc1ccc(/C=N/NC(=O)c2ccccc2Cl)cc1CSc1nc2ccccc2s1,-22,-3,-11,64,-34,-2,i,-10
CCc1c(C)nc2ncnn2c1N1CCCC(C(=O)NCc2ccco2)C1 (configuration not stated),-27,4,-3,-19,13,6,i,-4
CCn1cc(C(=O)NCC(OC)OC)c(=O)c2cc(S(=O)(=O)N(C)C3CCCCC3)ccc21,-7,-7,-3,23,7,14,i,-2
CCN(CC)CCn1c2c(c(SCC(=O)Nc3ccc(F)c(F)c3)nc1=O)CCC2,-7,3,-3,-6,7,nt,i,nt
CCOC(=O)c1cccc(NC(=O)c2ccc(NC(=O)C3CCCO3)cc2)c1 (configuration not stated),7,3,-6,-12,-1,7,nt,-21
CCOc1ccccc1C1C(C#N)=C(N)Oc2cc(C)n(Cc3ccccn3)c(=O)c21 (configuration not stated),-12,-6,7,nt,3,30,i,14
CC1CC(Nc2ccccc2N)=CC(=O)O1 (configuration not stated),-5,-1,3,6,nt,-1,i,-3
NC(=O)CC1C(=O)N(c2ccc(Cl)cc2)C(=S)N1NC(=O)c1cccc(F)c1 (configuration not stated),-9,4,-1,-8,-14,7,i,-11
Cc1ccc(NS(=O)(=O)c2ccccc2[N+](=O)[O-])cc1S(=O)(=O)N1CCCCC1,-4,2,2,-9,-22,nt,nt,nt
COC(=O)c1ccc(N2C(=O)CC(Sc3n[nH]c(C)n3)C2=O)cc1 (configuration not stated),-6,-3,1,-5,nt,13,i,3
CCc1ccc(C)c(OC(=O)c2cncc(Br)c2)c1,2,1,0,-20,-15,1,i,-9
Cc1ccc(Cn2cc(CCC(=O)O)c3ccccc32)cc1,5,5,-9,-11,4,2,i,5
CC(=O)N1CCN(C(=O)c2cc(-c3ccc(C)o3)nc3ccccc23)CC1,-11,-1,3,11,nt,nt,i,nt
CC[C@]1(C(=O)OC)[C@H]2C(=O)N(Cc3ccccc3)C(=O)[C@H]2[C@H]2CN=C(SCC3CC3)N21,-10,2,0,nt,81*,nt,nt,nt
CSc1nccc(-c2nn(-c3ccc(C)cc3)ccc2=O)n1,-27,0,-16,50,nt,-10,i,-4
CC(=O)c1ccc(OCCCC(=O)NCCc2ccccc2)cc1,13,-3,1,13,-6,-4,i,10

# Of the compounds above, these have a tert-butyl group.
SMILES,UUG fidelity,MT1-MMP act inh,MT1-MMP act inh RFP,CSC inhib,HIV Env fusion,PABP FP inh,Rce1 inhib,eIF4H inh
Cc1cc(C)c(S(=O)(=O)c2ccc(C(C)(C)C)cc2)c(Cl)n1,-18,0,-4,-6,13,-9,i,-12
CC(C)(C)C(=O)O/N=C1\CCS(=O)(=O)c2sccc21,nt,-2,1,-16,-1,-1,i,4
